# Compound activity as filed in PubChem.
# rRNA inh HTS = reduced GFP signal of wild-type E. coli, primary screen, bacterial rRNA inhibitor project, GFP/RFP fluorescence, OD600, single point | E. coli WT GFP vs humanized-ribosome RFP mutants, 24 h; active compounds read low; DMSO median 0, no signal -100 | GFP signal change (wild-type ribosome), % (test concentration not listed) | 350,000 tested, 1.6% active | AID 720706, 2013;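 active means significant combined selectivity score with lowered wild-type GFP, culture density cut under 30%, mutant RFP and density less affected; inactive means any of these conditions unmet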; further: one replicate is shown; some compounds called inactive have numbers as strong as hits
# rRNA inh HTS OD600 = further read-out of rRNA inh HTS, marked with its call; OD600 change, %; measured here: OD600 growth;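 optical density of the mix in the first replicate; 0 = DMSO median and -100 = no signal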
# rRNA inh HTS RFP = recorded beside rRNA inh HTS, whose call it bears; RFP signal change, %; measured here: RFP humanized mutant strains;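 first replicate; 0 = DMSO median and -100 = no signal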
# Starred values were filed as active, the others as inactive; & = joins results of further samples.
# Every second line gives: rRNA inh HTS	rRNA inh HTS OD600	rRNA inh HTS RFP
> O=C(C[C@@H]1CC[C@H]2[C@@H](COC[C@@H](O)CN2C(=O)c2ccccc2)O1)Nc1ccccc1
 : -1.3	-10.0	1.4
> CCc1nc2ccc(C(=O)NCCCN3CCCC3=O)cn2c1N(CC)Cc1cccc(Br)c1
 : -8.8	-15.8	-7.4
> C[C@@H]1CN([C@H](C)CO)C(=O)c2cc(C#Cc3cccnc3)cnc2O[C@H]1CN(C)C(=O)CC1CC1
 : -0.2	-2.8	-0.6
> O=C(c1ccccn1)N1C[C@@H]2[C@H](c3ccccc31)[C@H](CO)N2C(=O)CC1CC1
 : 2.3	7.8	1.2
> CN(C)C(=O)C[C@@H]1C[C@H]2c3cc(NC(=O)Nc4ccccc4)ccc3O[C@H]2[C@@H](CO)O1
 : 1.6	6.3	-1.9
> CC(=O)Nc1cc(-c2cccnc2)cn2c(-c3cccc(C(F)(F)F)c3)cnc12
 : -16.1	-32.5	-4.8
> Cc1cccc(S(=O)(=O)N2C[C@H]3[C@@H](c4ccccc42)[C@@H](CO)N3CC2CCOCC2)c1
 : -5.6	-5.2	5.3
> CCNC(=O)[C@H]1[C@H](CO)[C@H]2Cn3c(ccc(-c4cccc(F)c4)c3=O)[C@H]2N1C(C)=O
 : 0.7	3.8	-1.2
> C[C@@H]1CN([C@@H](C)CO)C(=O)c2cc(-c3cccc(C(=O)N(C)C)c3)cnc2O[C@@H]1CN(C)C
 : 7.1	8.4	-2.1
> C[C@@H]1CN([C@@H](C)CO)C(=O)CCCn2cc(nn2)CO[C@@H]1CN(C)C(=O)Nc1ccccc1F
 : 2.1	2.9	-2.2
> COCCNC(=O)[C@H]1[C@H](CO)[C@H]2Cn3c(ccc(C4=CCCCC4)c3=O)[C@@H]1N2Cc1cocn1
 : 0.7	5.2	-1.0
> CCN(CC)C(=O)C1=C(C)N(CCCN2CCCC2=O)C(=O)C(CC(=O)NC2CC2)C1 (stereo unspecified)
 : 0.2	10.5	-7.1
> CC(=O)N(C)C[C@H]1Oc2ncccc2C(=O)N(C)C[C@@H]1C
 : 1.8	1.3	0.3
> Cc1noc(C)c1NC(=O)Nc1cccc2c1O[C@H](CN(C)CC1CC1)[C@H](C)CN([C@@H](C)CO)C2=O
 : 2.8	3.6	-2.4
> CCC(=O)NC[C@@H]1[C@@H](c2ccc(-c3ccc(OC)cc3)cc2)[C@@H](CO)N1C(C)=O
 : -0.4	-6.5	-3.6

# Rewritten field by field: entries from further up
CCNC(=O)[C@H]1[C@H](CO)[C@H]2Cn3c(ccc(-c4cccc(F)c4)c3=O)[C@H]2N1C(C)=O
  rRNA inh HTS: 0.7
  rRNA inh HTS OD600: 3.8
  rRNA inh HTS RFP: -1.2

C[C@@H]1CN([C@@H](C)CO)C(=O)c2cc(-c3cccc(C(=O)N(C)C)c3)cnc2O[C@@H]1CN(C)C
  rRNA inh HTS: 7.1
  rRNA inh HTS OD600: 8.4
  rRNA inh HTS RFP: -2.1

CCC(=O)NC[C@@H]1[C@@H](c2ccc(-c3ccc(OC)cc3)cc2)[C@@H](CO)N1C(C)=O
  rRNA inh HTS: -0.4
  rRNA inh HTS OD600: -6.5
  rRNA inh HTS RFP: -3.6

# Later entries.
# Every second line gives: rRNA inh HTS	rRNA inh HTS OD600	rRNA inh HTS RFP
> CCCCC(=O)N(C)c1c(CC)nc2c(OCC(=O)c3ccc(F)cc3)cccn12
 : -2.6	-16.9	-1.2
> COCCNC(=O)[C@H]1[C@H](CO)[C@H]2Cn3c(cccc3=O)[C@H]2N1Cc1ccccc1OC
 : -1.9	0.7	-4.0
> O=C(N[C@H]1CC[C@H](CCNS(=O)(=O)c2cccc(Cl)c2)O[C@H]1CO)c1ccc(F)cc1
 : -3.4	-5.7	2.5
> CCNC(=O)[C@H]1[C@H](CO)[C@H]2Cn3c(cccc3=O)[C@H]2N1CC1CCCCC1
 : 0.9	-0.2	-0.9
> O=C(C1CCC1)N1CC(=O)N2[C@H](CO)[C@H](c3ccc(C#Cc4cccc(F)c4)cc3)[C@@H]2C1
 : -57.2	-79.5	-9.9
> O=C(NC1CCC1)[C@@H]1[C@@H](CO)[C@@H]2Cn3c(ccc(-c4ccccc4F)c3=O)[C@@H]2N1Cc1ccccn1
 : -1.6	-2.9	-1.8
> Cc1ccc(Cl)cc1-c1cc(C(=O)NCc2ccco2)[nH]n1
 : -11.8	-27.4	-2.8
> COCCNC(=O)C[C@@H]1C[C@H]2c3cc(NC(=O)C4CCOCC4)ccc3O[C@H]2[C@H](CO)O1
 : 1.8	0.5	-1.9
> COc1ccc2c3c([nH]c2c1)[C@@H](CO)N(C(=O)Nc1cccc(F)c1)CC31CN(S(=O)(=O)c2ccccc2)C1
 : -2.8	-11.0	2.7
> CC(=O)Nc1ccc2c(c1)C(=O)N(C)[C@H]1CC[C@@H](CC(=O)NCCCN3CCOCC3)O[C@@H]1CO2
 : 0.8	-4.3	0.4
> CCCNC(=O)N1[C@@H](CO)[C@H](c2ccccc2)[C@@H]1CNC(C)=O
 : 2.4	5.1	-1.3
> CCC(=O)N1C[C@H](C)[C@H](OC)CN(C)C(=O)c2ccc(NC(=O)c3ccccc3)cc2OC[C@H]1C
 : -2.3	0.1	-0.8
> C[C@@H]1CCCCO[C@H](CN(C)S(=O)(=O)c2cn(C)cn2)[C@H](C)CN([C@@H](C)CO)C(=O)c2cc(NS(=O)(=O)c3cccs3)ccc2O1
 : -4.8	-0.6	-3.2
> Cc1[nH]c2ccccc2c1CC(=O)Nc1ccc(Oc2cccnc2)cc1
 : -7.2	-17.4	0.8
> C[C@@H](O)C#Cc1ccc2c(c1)O[C@@H](CN(C)C(=O)Nc1ccccc1)[C@@H](C)CN([C@@H](C)CO)S2(=O)=O
 : -2.6	-2.6	-5.4
> Cn1cnc(S(=O)(=O)N[C@H]2CC[C@@H](CC(=O)NCC3CCCCC3)O[C@H]2CO)c1
 : 3.6	4.2	-1.4
> COc1ccccc1CN1CC2(C1)[C@H](c1ccccc1)[C@H](CO)N2Cc1ccccc1
 : -30.4	-66.7	24.4
> COc1ccc2c3c([nH]c2c1)[C@H](CO)N(C(=O)C1CCCCC1)CC31CCN(C(=O)c2ccncc2)CC1
 : 0.2	1.6	-2.7
> CCOC1=C2CN(S(=O)(=O)c3ccc(C)cc3)[C@H](c3cccc(Cl)c3)C[C@H]2[C@H]2C(=O)N(c3ccccc3)C(=O)[C@H]2C1
 : 9.9	3.8	1.9
> Cc1noc(C)c1NC(=O)Nc1ccc2c(c1)C(=O)N([C@@H](C)CO)C[C@H](C)[C@H](CN(C)S(=O)(=O)c1cn(C)cn1)OCCCC[C@@H](C)O2
 : -2.5	8.4	-2.0
> C[C@H]1CN([C@@H](C)CO)C(=O)CCCn2nncc2CO[C@@H]1CN(C)S(=O)(=O)c1cccs1
 : 12.2&0.5	11.7&-0.9	3.6&-1.7
> C[C@H]1CN([C@@H](C)CO)C(=O)c2ccccc2-c2ccccc2CO[C@H]1CN(C)S(=O)(=O)c1ccccc1F
 : -2.7	-10.8	3.5
> C[C@@H]1CCCCO[C@H](CN(C)C(=O)NC2CCCCC2)[C@H](C)CN([C@@H](C)CO)C(=O)c2cc(NC(=O)CCC(F)(F)F)ccc2O1
 : 1.0	-10.7	-1.0
> CN(C)C(=O)c1cccc(-c2ccc([C@H]3[C@H](C#N)N(C(=O)C4CCC4)[C@H]3CO)cc2)c1
 : 3.9	2.7	1.2
> C[C@@H]1CN([C@H](C)CO)C(=O)c2cccc(NC(=O)C3CC3)c2O[C@@H]1CN(C)S(=O)(=O)c1ccc(Cl)cc1
 : -5.8	-7.8	-5.6
> CC(C)NC(=O)C1C(c2ccccc2)=Nc2ccccc2N1C(=O)c1ccc(C(F)(F)F)cc1 (stereo unspecified)
 : 1.5	-1.1	-0.6
> CC=Cc1ccc2n(c1=O)C[C@H]1[C@H](CO)[C@@H](C(=O)NCCN3CCCC3)N(C(=O)NCCC)[C@@H]21 (mixture of isomers)
 : 2.9	13.4	-0.5
> C[C@@H]1CN([C@H](C)CO)C(=O)Cc2cc(NC(=O)Nc3ccc(F)cc3)ccc2O[C@H]1CN(C)S(=O)(=O)c1cn(C)cn1
 : -1.4	1.9	-0.3
> Cc1ccc(S(=O)(=O)N(C)C[C@@H]2Oc3ccc(N(C)C)cc3C(=O)N([C@H](C)CO)C[C@H]2C)cc1
 : -2.9	-7.4	-2.8
> C[C@H]1CN([C@@H](C)CO)S(=O)(=O)c2ccc(C#Cc3ccccc3F)cc2O[C@H]1CN(C)C(=O)Cc1ccccc1
 : -1.6	11.7	-1.4
> CNC[C@@H]1Oc2c(NC(=O)C3CC3)cccc2C(=O)N([C@H](C)CO)C[C@@H]1C
 : 3.9	8.7	-3.5
> Cc1noc(C)c1S(=O)(=O)Nc1ccc2c(c1)C(=O)N([C@H](C)CO)C[C@H](C)[C@@H](CN(C)S(C)(=O)=O)O2
 : -0.3	1.9	-2.3
> CCS(=O)(=O)NCC[C@H]1CC[C@H](NS(=O)(=O)c2cccc(F)c2)[C@@H](CO)O1
 : 3.4	3.1	0.1
> CC(C)C[C@@H](CN1CCC[C@H]1CN1C(=O)C(=O)NC[C@@H]1Cc1ccc(O)cc1)N1C[C@H](Cc2ccc(O)cc2)N(CC2CCCCCC2)C(=O)C1=O
 : -7.2	-15.6	-1.7
> C[C@@H]1CCCCO[C@@H](CN(C)C(=O)Nc2ccc(F)cc2)[C@@H](C)CN([C@H](C)CO)C(=O)c2cc(NC(=O)Nc3ccc(F)cc3)ccc2O1
 : 5.0	-1.9	-0.3
> C#CCNC(=O)C[C@@H]1C[C@@]2(C(=O)OCC)CCC=C2N(Cc2ccc3c(c2)OCO3)C1=O
 : -2.0	9.1	0.3
> CO[C@H]1CN(C)C(=O)c2ccc(NC(=O)C3CC3)cc2OC[C@H](C)N(Cc2cc(F)ccc2F)C[C@H]1C
 : -4.3	-21.5	4.8
> C[C@H](CO)N1C[C@H](C)[C@@H](CN(C)Cc2ccc3c(c2)OCO3)Oc2ccc(NC(=O)Nc3cccc4ccccc34)cc2C1=O
 : -3.1	-3.1	9.9
> COCC(=O)N1[C@@H](CO)[C@@H](c2ccccc2)[C@@H]1CNC(=O)c1ccccn1
 : -1.1	8.6	-1.9
> CCn1cc(/C=C(\NC(=O)c2ccccc2OC)C(=O)N2CCOCC2)c2ccccc21
 : 0.2	-14.1	-0.8
> COc1ccc(-n2sc3ccccc3c2=O)cc1
 : -1.4	-1.5	-0.1
> C[C@@H]1CCCCO[C@H](CN(C)S(=O)(=O)c2cn(C)cn2)[C@@H](C)CN([C@H](C)CO)C(=O)c2cc(NC(=O)C3CCCCC3)ccc2O1
 : -0.4	5.0	-3.2
> C[C@@H]1CN([C@H](C)CO)C(=O)Cc2cc(N(C)C)ccc2O[C@@H]1CN(C)Cc1ccc(C(F)(F)F)cc1
 : 1.1	2.3	-0.6
> C[C@@H]1CCCCO[C@H](CN(C)S(=O)(=O)c2ccc(Cl)cc2)[C@@H](C)CN([C@@H](C)CO)C(=O)c2cc(NC(=O)CCCN(C)C)ccc2O1
 : -3.2	-13.2	23.6
> Cc1noc(C)c1NC(=O)Nc1ccc2c(c1)C(=O)N([C@H](C)CO)C[C@@H](C)[C@H](CN(C)S(=O)(=O)c1c(C)noc1C)OCCCC[C@H](C)O2
 : 8.1	6.8	0.9
> COc1ccc(NC(=O)N2[C@@H]3CNC[C@H]2C3c2ccc(-c3cccc(C(=O)N(C)C)c3)cc2)cc1 (stereo partly specified)
 : 3.8&2.8	10.2&4.8	-0.8&-0.1
> O=C(O)c1cccc2c1C(=O)c1ccc(N3CCN(Cc4ccc5c(c4)OCO5)CC3)cc1S2(=O)=O
 : 17.5	9.7	2.5
> COc1ccc(CCNC(=O)COC(=O)C2=NNC(=O)CC2)cc1
 : 12.6	17.2	1.5
> COCC#Cc1ccc2c(c1)O[C@@H](CN(C)C(=O)c1ccccc1)[C@@H](C)CN([C@@H](C)CO)S2(=O)=O
 : -3.2	-0.6	-1.4
> O=C(C[C@H]1C(=O)N(CCc2ccccc2)C[C@@H]1Cc1ccccc1)Nc1ccc(Br)cc1
 : 1.8	2.1	0.1
> Cc1ccc(S(=O)(=O)N(C)C[C@H]2Oc3ccc(NC(=O)c4ccncc4)cc3CC(=O)N([C@@H](C)CO)C[C@H]2C)cc1
 : -2.0	-0.9	-0.2
> C[C@H](CO)N1C[C@H](C)[C@H](CN(C)Cc2ccc3cccnc3c2)OCc2cnnn2CCCC1=O
 : -1.6	-7.7	-1.3
> O=C(NCC1CC1)[C@@H]1[C@@H](CO)[C@@H]2Cn3c(ccc(-c4cccc(F)c4)c3=O)[C@@H]2N1CC1CCOCC1
 : 1.3	2.2	-2.1
> O=C(c1ccc2c(c1)OCO2)N1CC(=O)N2[C@H](CO)[C@H](c3ccc(-c4ccccc4)cc3)[C@@H]2C1
 : 4.0	-11.8	-3.1
> O=C1N2CCCCC1(Sc1ccccc1)CCC2 (stereo unspecified)
 : 0.1	-2.7	3.8
> CC(C)C(=O)Nc1ccc2c(c1)C(=O)N(C)[C@@H]1CC[C@@H](CC(=O)NCc3ccccc3F)O[C@H]1CO2
 : 1.2	-3.4	0.9
> CC(=O)N1[C@@H]2c3ccc(-c4ccncc4)c(=O)n3C[C@@H]2[C@@H](CO)[C@@H]1C(=O)NCc1ccccc1Cl
 : -0.1	5.3	1.3
> COc1ccc(Cc2c(-c3ccccc3)nc3cc(C)c(Br)c(C)n23)c(C)c1
 : 6.6	6.2	2.6
> C[C@H](CO)N1C[C@H](C)[C@H](CN(C)Cc2ccc(Cl)c(Cl)c2)Oc2ccc(NC(=O)Nc3ccc(C(F)(F)F)cc3)cc2CC1=O
 : 1.1	1.2	-3.1
> CC1(c2nnnn2Cc2ccccc2)CCC(=O)N1Cc1cccnc1 (stereo unspecified)
 : 7.6	17.6	-6.7
> CCCC#Cc1ccc([C@@H]2[C@@H](CO)N(S(C)(=O)=O)[C@H]2C#N)cc1
 : 4.5	-2.9	-3.1
> CCc1nc2ccc(C(=O)NCCc3ccccn3)cn2c1N(CC)CCOC
 : -3.8	10.0	-1.9

# A portion of the library; rates above refer to the full screens.
